# NS1 inh = inhibitors of influenza NS1 protein function | S. cerevisiae slowed by influenza A NS1, growth recovery by OD600 | Potency, µM (highest dose often 46.1 µM), for inactives: at the top dose activity, positive = more growth | hit rate 0.4% among 270,000; active means well fitted rising curve with a large enough effect; inconclusive means small, poorly fitted or top-dose-only effect; inactive means no such curve, though single readings can be large or run the other way; also: nearly all actives have a fitted effect of over 50% in size
#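 Recovery from NS1-induced slow growth read by OD600 in budding yeast switched to galactose assay medium (pH 6.0, -URA) at 1:100 dilution. Compound 23 nl per well; the matching strain lacking NS1 serves as control.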
# SARS PLP yeast = SARS-CoV PLP inhibition in yeast. S. cerevisiae expressing SARS-CoV PLpro, growth rescue; control for the full effect not named in the record. Potency, µM (top dose mostly 32.9 µM), inactives show at the highest dose activity, positive = growth rescue. hit rate 0.19% among 330,000. AID 485353; active means well fitted rising curve with a large enough effect; inconclusive means small, poorly fitted or top-dose-only effect; inactive means no such curve, though single readings can be large or run the other way; also: 0% is about no effect; nearly all actives have a fitted effect of over 55% in size; growth read by luminescence after 48 h
# Cruzain Triton = cruzain (T. cruzi) inhibition with detergent; AID 1478; purified cruzain, Z-FR-AMC fluorescence, 0.01% Triton; hit rate 0.43% among 200,000; Potency, µM, for inactives: max response, negative = inhibition, most hits filed as inhibitors; P25779;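 also: plate controls were neutral wells for no effect and buffer without enzyme for full effect; nearly all actives have a fitted effect of over 40% in size; top concentration of the series not given in the record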
# Target sequence (P25779 123-467 limits assumed): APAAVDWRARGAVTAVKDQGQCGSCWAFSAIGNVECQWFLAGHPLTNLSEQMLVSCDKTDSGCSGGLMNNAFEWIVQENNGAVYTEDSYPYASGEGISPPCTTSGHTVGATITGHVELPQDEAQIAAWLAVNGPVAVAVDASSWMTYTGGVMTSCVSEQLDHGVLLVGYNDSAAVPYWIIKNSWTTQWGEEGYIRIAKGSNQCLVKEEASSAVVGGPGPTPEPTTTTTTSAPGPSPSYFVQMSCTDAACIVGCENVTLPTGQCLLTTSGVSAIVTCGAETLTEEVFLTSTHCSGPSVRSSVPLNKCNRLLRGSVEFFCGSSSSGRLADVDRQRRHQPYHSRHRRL
#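 Read-out: AMC fluorescence (360 nm excitation, 450 nm emission), four reads over 2 min, first-to-third difference used. Conditions: cruzain 1.5 nM, Z-FR-AMC 2 uM, pH 5.5 acetate, 5 mM DTT, 0.01% Triton X-100.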
# Lassa entry inh = Lassa virus entry inhibition; Lassa virus pseudotype entry inhibition, cell reporter; control for the full effect not named in the record; Potency, µM (highest dose often 37.9 µM), for inactives: at the highest dose activity change, negative = inhibition, usual class: inhibitors; hit rate 1.2% among 300,000; AID 540256; active means well fitted inhibition curve with a large enough effect; inconclusive means small, poorly fitted or top-dose-only effect, or effect the other way; inactive means flat fitted curve, though single readings scatter; tested in HEK293 cells; also: % is scaled to controls: 0 for no effect and ±100 for the full control effect; nearly all actives have a fitted effect of over 50% in size; luciferase read-out
# RE007 growth inh = less growth of the S. pombe RE007 Vpr strain; S. pombe RE007 Vpr strain, BacTiter-Glo ATP luminescence, 24 h; control for the full effect not named in the record; Potency, µM (series often up to 92.2 µM), for the others: at the highest dose activity change, negative = less growth; hit rate 0.21% among 360,000; active = well fitted falling curve with a large enough effect; inconclusive = small, poorly fitted or top-dose-only effect; inactive = no such curve, though single readings can be large or run the other way;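 also: % is scaled to controls: 0 for no effect and ±100 for the full control effect; nearly all actives have a fitted effect of over 50% in size; the assay follows cell death caused by Vpr and the record does not say whether a fall means rescue or toxicity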
#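 Fission yeast strain RE007, carrying one chromosomally integrated HIV-1 vpr copy, was seeded at OD 0.01 in PMG+AL medium with 23 nL pinned compound. After 24 h at 30 °C and 99% humidity, viability was read by BacTiter-Glo luminescence.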
# 2A StopGo = FMDV 2A StopGo reporter, luciferase signal. AID 1159524. hit rate 1.2% among 410,000. Potency, µM (series often up to 57.9 µM), for inactives: top-dose signal change, negative = less light. human cells with a luciferase reporter of 2A StopGo recoding; control for the full effect not named in the record; active = well fitted falling curve with a large enough effect; inconclusive = small, poorly fitted or top-dose-only effect; inactive = no such curve, though single readings can be large or run the other way; tested in HEK293T cells; also: % is scaled to controls: 0 for no effect and ±100 for the full control effect; nearly all actives have a fitted effect of over 45% in size; luciferase light after 4 h
# Marburg entry inh = Marburg virus entry inhibition | Marburg virus pseudotyped entry inhibition, cell reporter; control for the full effect not named in the record; about a third of the inactives were read at about 46 µM | Potency, µM (top dose mostly 37.8 µM), inactives show at the top dose activity change, negative = inhibition, most hits filed as inhibitors | hit rate 1.8% among 300,000 | AID 540276; active = well fitted inhibition curve with a large enough effect; inconclusive = small, poorly fitted or top-dose-only effect, or effect the other way; inactive = flat fitted curve, though single readings scatter; tested in HEK293 cells; about a fifth of its hits are not listed in these tables; also: % is scaled to controls: 0 for no effect and ±100 for the full control effect; luciferase read-out
# Cruzain inh noDet = cruzain (T. cruzi) inhibition without detergent | P25779 | purified cruzain, Z-FR-AMC fluorescence, no detergent | Potency, µM, without a hit: max response, negative = inhibition, usual class: inhibitors | hit rate 2.3% among 200,000;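 also: plate controls were enzyme without inhibitor for no effect and buffer without enzyme for full effect; nearly all actives have a fitted effect of over 40% in size; top concentration of the series not given in the record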
#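 Purified cruzain at 1.5 nM, pre-incubated 15 min with compound at room temperature in 100 mM sodium acetate pH 5.5, 5 mM DTT, 0.00005% Triton X-100. Reaction started with 2 uM Z-FR-AMC; AMC fluorescence increase over 60 s gives rate.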
# Starred values were filed as active, the others as inactive; u = inconclusive; x = no result given; & = joins results of further samples; [ ] = remark or other dose. Unless noted, calls follow the shape of the dose curve; as a rule, active = well fitted curve in the direction sought with a large enough effect; inconclusive = small, poorly fitted or top-dose-only effect, or another doubt; inactive = no such curve, though single readings can be large; an effect the other way counts as inactive or inconclusive. Potency is read from the fitted curve at half-maximal effect.
SMILES,NS1 inh,SARS PLP yeast,Cruzain Triton,Lassa entry inh,RE007 growth inh,2A StopGo,Marburg entry inh,Cruzain inh noDet
CCCN1Cc2cccc(C(=O)Nc3ccc(CC)cc3)c2C1=O,-3%,2%,0.8%,u,-5%,22%,18%[46.1 µM],-7%
OCC[C@@H]1C[C@@H](O)[C@H](O)[C@@]2(OCc3ccccc32)O1,5%,-8%,x,x,10%,-2%,x,x
COc1ccc2c(CNCCc3cccs3)c(C(=O)O)n(Cc3ccccc3C)c2c1,x,x,-2.1%,1%[46.1 µM],x,-8%,x,-11%
Cc1coc2cc3oc(=O)c(CC(=O)NCc4ccc(F)cc4)c(C)c3cc12,x,x,-3.6%,-6%[46.1 µM],x,50%[activator],-20%[46.1 µM],6%
CC1(c2ccccc2)NC(=O)N(CC(=O)Nc2ccccc2C(=O)NC2CC2)C1=O (stereo not given),2%,-3%,x,3%[46.1 µM],6%,-6%,-17%[46.1 µM],x
CCOC(=O)C1CCN(S(=O)(=O)c2cc3c(cc2C)NC(=O)CO3)CC1,-20%,4%,x,x,8%,-21%,x,x
Cc1cc(=O)oc(C)c1C(=O)NCCCN1CCN(c2ccccc2F)CC1,0%,-1%,0.7%,-2%,-21%,-24%,-4%,-4%
O=C(CNC(=O)c1ccccc1)NCC(=O)OCC(=O)c1ccccc1Cl,3%,-8%,x,x,-2%,3%,x,x
COc1cc2c3nnc(-c4ccccc4)c-3cn(Cc3ccccc3F)c2cc1OC,x,1%,x,u,2%,-15%,u,x
CN1CCC(N(C)C(=O)/C(C#N)=C/c2ccc(OC(F)F)cc2)CC1,-1%,-1%,x,x,-10%,-17%,x,x
CN1C(=O)C(C)(C)c2cc(S(=O)(=O)N3CCN(c4ccccc4)CC3)ccc21,8%,0%,x,x,-4%,-6%,x,x
Cc1ccc(C2CC(c3cccs3)=NN2C(=O)CSc2nc3ccccc3o2)cc1 (stereo not given),u,-20%,-16%,18%,-5%,-21%,0%,u
COc1ccc(CN(Cc2ccc(OC)cc2)C(=O)c2cccs2)cc1,-7%,-2%,x,u,64%,-7%,-29%[46.1 µM],x
CCOc1cc(NC(=S)NC)c(OCC)cc1NC(=O)c1ccc(OC)cc1,3%,-1%,x,4%,-5%,-3%,20%[46.1 µM],x
COc1ccc(NC2CC(=O)N(c3ccccc3)C2=O)cc1 (stereo not given),0%,4%,2.1%,u,-28%,24%,u,-15%
COc1c(C(=O)NC(=S)Nc2nnn(C)n2)cc2ccccc2c1Br,0%,1%,x,13%,-10%,-26%,u,x
COc1ccc(C(C(=O)NC2CCCC2)N(C(=O)c2csnn2)C2CCCC2)cc1 (stereo not given),8%,-1%,x,9%[46.1 µM],-10%,-5%,-15%[46.1 µM],x
Cc1ccc(N2C(=O)N(CC(=O)Nc3cc(F)ccc3C)C(=O)C2C)cc1 (stereo not given),x,-3%,x,3%,-3%,-8%,15%,x
CCCC(=O)Nc1sc(C)c(C)c1C(=O)Nc1cccc(C)c1,0%,-1%,1.0%,1%,-4%,x,12%,-8%
CCN1C(=O)/C(=c2\sc3nc(=O)c(Cc4ccccc4)nn3c2=O)c2ccccc21,6%,1%,x,4%,-20%,-8%,12%,x
COC(=O)c1sccc1NC(=O)c1cc(-c2ccc(C)cc2C)nc2ccccc12,4%,1%,1.1%,-20%,5%,u,-14%,u
COc1ccc(-n2nc(C(=O)NCC(=O)N3CCN(c4ccccc4OC)CC3)c3ccccc3c2=O)cc1OC,-1%,-1%,x,11%,-14%,-5%,-13%[46.1 µM],x
Cc1ccccc1NC(=O)NCCc1nc2ccccc2[nH]1,9%,3%,-1.5%,6%,-29%,-7%,u,u
O=C1NC(=Nc2ccccc2)S/C1=C\C=C\c1ccco1,4.5µM*,-3%,-28%,u,-10%,31%[activator],u,-4%
COc1ccc(CNC(=O)c2cnc3scc(C)n3c2=O)cc1,-8%,-3%,-3.1%,x,14%,0%,x,-6%
SMILES,NS1 inh,SARS PLP yeast,Cruzain Triton,Lassa entry inh,RE007 growth inh,2A StopGo,Marburg entry inh,Cruzain inh noDet
CCOC(=O)c1c(C)n(CCNC(C)=O)c2ccc(O)cc12,4%,2%,0.3%,8%,-8%,x,14%,-2%
COc1cccc(C2c3[nH]c4ccccc4c3C[C@H]3C(=O)N(CCCCCO)CC(=O)N23)c1 (stereo not given in full),-2%,1%,x,x,-8%,14%,x,x
CCCn1nc(NS(=O)(=O)c2cccc3nonc23)c2cc3ccccc3nc21,0%,-9%,x,x,0%,13%,x,x
O=C(CCc1n[nH]c(=O)[nH]c1=O)N1CCCCC1,-9%,3%,2.2%,x,-4%,-18%,-1%,0%
COC(CNC(=O)c1ccc2c(c1)ncn2-c1ccc(C)cc1C)OC,-10%,6%,x,u,3%,-3%,-3%[46.1 µM],x
CCn1c2ccccc2c2nnc(SCCCn3c(=O)[nH]c4ccccc43)nc21,4%,6%,-2.3%,-11%,-3%,-9%,u,10%
O=C1CC(N2CCC(c3nc4ccccc4[nH]3)CC2)C(=O)N1c1ccccc1F (stereo not given),-80%,-6%,x,11%,35µM*,-3%,u,x
O=S1(=O)CC/C(=N\Nc2ccc(F)cc2)c2ccsc21,x,-13%,x,28%[46.1 µM],-7%,3%,u,x
COc1cc2c(C(=O)N3CCN(Cc4ccc5c(c4)OCO5)CC3)cn(C)c(=O)c2cc1OC,-7%,0%,1.3%,-8%,-4%,-26%,u,-2%
Cc1cccc(NC(=O)CSc2cn(CC(=O)N3CCCC3)c3ccccc23)c1C,x,x,-3.3%,7%[46.1 µM],x,18%,x,-14%
O=C(CCS(=O)(=O)c1ccc(Cl)cc1)Nc1nccs1,x,-2%,x,-1%,3%,8%,-13%,x
COCCNC(=O)/C(C#N)=C/C=C/c1ccccc1[N+](=O)[O-],x,1%,x,u,14%,u,u,x
Cc1ccc(/C=C/C(=O)Nc2nn[nH]n2)o1,7%,-15%,-12%,7%,3%,-9%,6%,-14%
CCOC(=O)c1ccc[n+](CC(=O)Nc2ccccc2OC(F)F)c1,-6%,5%,x,0%[46.1 µM],-15%,8%,-16%[46.1 µM],x
O=C(CN1C(=O)c2ccccc2C1=O)NCC1CCCO1 (stereo not given),-1%,6%,1.4%,2%,-3%,u,22%,-1%
O=C(Nc1cc(=O)[nH]c2nc(-c3ccc(Cl)cc3)nn12)c1ccccc1,-2%,1%,x,2%,-4%,-11%,4%[46.1 µM],x
CCC(C)CCCCNC1=NCCS1 (stereo not given),x,-4%,x,0%,-27%,-13%,u,x
Cc1cc(NC(=O)CSc2nc(-c3ccc(F)cc3)cs2)no1,2%,-2%,0.6%,-28%,20%,-14%,u,-3%
CCc1nc(-c2cc(S(=O)(=O)N3CCN(c4ccccc4OC)CC3)ccc2OC)no1,x,x,-4.1%,0%[46.1 µM],x,0%,3%[46.1 µM],-11%
Cc1ccc(-n2ncc3c2CC(C)(C)CC3NC(=O)CN2CCCC2=O)cc1 (stereo not given),-9%,-3%,x,-16%[46.1 µM],0%,-22%,1%[46.1 µM],x
CC(C(=O)Nc1ncccn1)(c1ccccc1)c1ccccc1,-4%,2%,x,11%,16%,-23%,u,x
CCOC(=O)N1CCN(c2nc(-c3ccc(Cl)cc3)cs2)CC1,5%,-5%,-2.0%,5%,2%,x,-1%,4%
CSc1nnc(SCC(=O)N(C)c2c(N)n(Cc3ccccc3)c(=O)[nH]c2=O)s1,x,3%,x,0%[46.1 µM],-4%,-13%,11%,x
Cc1nc2ccc(NC(=O)c3cccs3)cc2s1,-147%,-11%,x,5%[46.1 µM],-15%,19%,13%[46.1 µM],x
COc1cccc(C(C)NC(=S)NCc2ccc(Cl)cc2)c1 (stereo not given),-4%,0%,x,u,9%,-16%,-4%[46.1 µM],x
SMILES,NS1 inh,SARS PLP yeast,Cruzain Triton,Lassa entry inh,RE007 growth inh,2A StopGo,Marburg entry inh,Cruzain inh noDet
Cc1ccccc1NC(=O)Cn1nc(-c2ccc(Cl)s2)ccc1=O,-2%,1%,x,9%[46.1 µM],-7%,2%,7%[46.1 µM],x
CCOc1ccc(NCC2CCOC(C)(C)C2)cc1 (stereo not given),-3%,-1%,0.9%,-6%,0%,4%,28%[46.1 µM],-16%
C/C(=N\Nc1nc(C)cc(C)n1)c1ccc(C)o1,3%,0%,x,1%,-12%,14%,-19%,x
CCC(CC)C(=O)OCC(=O)C1(O)CCC2C3CCC4=CC(=O)CCC4(C)C3C(O)CC21C (stereo not given),x,x,x,-3%[46.1 µM],-5%,u,u,x
CCN1CCn2c3c(c4cc(Cl)ccc42)CCCC31 (stereo not given),3%,0%,-4.9%,14%,-17%,u,u,-5%
COc1ccc(CNC(=O)C2=CC(c3ccc(OC)c(OC)c3)=NS(=O)(=O)N2C)cc1,13%,0%,-7.8%,-6%[46.1 µM],3%,-20%&-9%,u,13%
CCOC(=O)c1c(NC(=O)COc2ccccc2F)sc2c1CCCC2,x,x,-1.0%,-1%[46.1 µM],x,-22%,1%[46.1 µM],1%
C1CN(c2nc3nonc3nc2N2C[C@H]3CC[C@H]2C3)CCS1,0%,0%,x,u,7%,-6%,11%,x
COc1ccc(CN2CCN(c3nc4ccccc4s3)CC2)cc1,0%,2%,x,2%,11%,1%,27%,x
CC(C)CC1NC(=O)N(Cc2cc(=O)n3ccsc3n2)C1=O (stereo not given),8%,0%,x,5%,6%,-4%,1%[46.1 µM],x
O=C(CCc1c[nH]c2ccccc12)NC(Cc1c[nH]c2ccccc12)C(=O)O (stereo not given),-1%,1%,x,x,10%,-9%,x,x
O=C(O)CCCCn1c(SCc2cc(=O)n3cc(Cl)ccc3n2)nc2ccsc2c1=O,18%,8%,-9.3%,11%&0%,29%,u,-15%&-16%,17%
CN(CC(=O)Nc1ccccc1Br)C(=O)c1cc([N+](=O)[O-])ccc1N1CCOCC1,x,-3%,x,8%,-10%,-11%,-22%,x
